Compound activity deposited in PubChem BioAssay by National Center for Advancing Translational Sciences (NCATS).
VDR inh: blocks the human vitamin D receptor; P11473; VDR-SRC2-3 peptide fluorescence polarization, 2 h; Potency, µM, for inactives: max response, negative = inhibition, most hits filed as inhibitors; 400,000 compounds, 0.93% hits; AID 504847; active means well fitted inhibition curve with a large enough effect; inconclusive means small, poorly fitted or top-dose-only effect, or another doubt; inactive means no such curve, though single readings can be large or run the other way; further: series mostly up to about 120 µM
Target sequence (P11473 whole entry, looked up): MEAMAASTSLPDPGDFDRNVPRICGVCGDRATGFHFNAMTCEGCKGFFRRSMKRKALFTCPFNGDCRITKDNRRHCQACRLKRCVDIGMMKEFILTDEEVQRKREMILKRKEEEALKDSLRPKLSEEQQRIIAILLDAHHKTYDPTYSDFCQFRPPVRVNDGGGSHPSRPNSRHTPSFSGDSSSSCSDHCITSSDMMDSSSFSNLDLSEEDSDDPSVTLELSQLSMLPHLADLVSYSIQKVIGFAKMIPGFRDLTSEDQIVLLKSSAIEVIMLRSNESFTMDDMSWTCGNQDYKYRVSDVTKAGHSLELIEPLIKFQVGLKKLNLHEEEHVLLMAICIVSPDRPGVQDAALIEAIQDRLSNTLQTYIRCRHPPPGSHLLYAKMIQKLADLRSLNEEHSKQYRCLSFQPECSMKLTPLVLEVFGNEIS
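VDR–SRC2-3 interaction, FP format. Cmpds 23 nl via pintool, brief spin, 2 h ambient incubation.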
Numbers without * were called inactive; u = inconclusive; & = joins results of further samples; ! = repeats disagree. On the % scale 0 is the no-effect control and ±100 the full control effect; potency means the concentration at half of the fitted maximal effect. A portion of the library. The share of hits here may be higher or lower than overall.

SMILES	VDR inh
CSc1ccc(CCNC(=O)CCc2c(C)nc3ncnn3c2C)cc1	-18%
CCN1CCN(C(=S)Nc2ccc([N+](=O)[O-])cc2)CC1	-2%
COc1ccc(C2Nc3ccc(NC(C)=O)cc3C(=O)N2Cc2cccc(Cl)c2)cc1COc1ccc(NC(C)=O)cc1 (configuration not stated)	-15%
COc1ccc(-c2noc(Cc3cccs3)n2)cc1	-2%
COc1ccc(Nc2nc(NCc3ccco3)nc(N/N=C/c3ccccc3)n2)cc1	-4%
COc1cc(CNCCNC(=O)c2nonc2N)ccc1OCc1ccc(Cl)nc1	-30%
O=C(COc1ccc(F)cc1F)N1CCCCCCC1	u
O=C(NCCc1c[nH]c2ccc(Cl)cc12)c1ccc([N+](=O)[O-])cc1	-6%
O=c1[nH]c(Cc2ccccc2Cl)nc2ccccc12	-4%
CN(Cc1ccccc1)C(=O)c1ccc(NC(=O)Cc2ccc([N+](=O)[O-])cc2)cc1	-25%
COC(=O)c1cccc(N(C(=O)c2ccco2)C(C(=O)NC2CCCC2)c2ccc(N3CCOCC3)cc2)c1 (configuration not stated)	17%
CC(C)CC(=O)NC(c1ccccc1Cl)c1c(O)ccc2ccccc12 (configuration not stated)	-2%
O=C(CNC(=O)c1ccc(Br)o1)NC12CC3CC(CC(C3)C1)C2	0%
COC(=O)C1=C(N)Oc2cc(C)n(CCCn3ccnc3)c(=O)c2C1c1ccc(Cl)cc1 (configuration not stated)	-9%
COCCNC(=O)COc1ccc(OCCNC[C@H](O)COc2ccccc2)cc1	15%
O=C(Nc1c(O)c2ccccc2oc1=O)c1cccc(F)c1	u
C/C(=N\Nc1nc2ccccc2[nH]1)c1ccc(N2CCOCC2)cc1	-3%
CS(=O)(=O)c1ccc([C@@H](O)[C@@H](CO)NC(=O)C(Cl)Cl)cc1	-16%
CCOc1cc(/C=N/NC(=O)C(=O)NCCCOC(C)C)cc(Br)c1O	-14%
CC(C)Oc1ccc(S(=O)(=O)N2CCOCC2)cc1NC(=O)C1=NN(c2ccccc2)C(=O)CC1	-9%
O=C(c1ccccc1)c1ccc(Cn2cc(-c3ccccc3)nn2)cc1	-14%
O=C1Nc2ccccc2Nc2ccccc21	-6%
COc1ccccc1CN1CCN(S(=O)(=O)c2ccc(C)cc2)CC1	-1%
Cc1ccc(C(=O)N(C)c2ccc(OCC(=O)N3c4ccc(C)cc4C4CN(C)CCC43)cc2)cc1 (configuration not stated)	6%
CCOC(=O)C1=C(C)N(CCCC(=O)O)C(=O)NC1c1ccc(Cl)cc1 (configuration not stated)	-26%
Cc1ccsc1C(=O)NCCC(c1ccccc1)c1ccccc1	7%
COCCNC(=O)C(C)N1c2cccc3cccc(c23)S1(=O)=O (configuration not stated)	-1%
c1ccc(COc2ccc3nocc3c2)cc1	-8%
Cc1cc(C)c(C)c(S(=O)(=O)N2CCC(C(=O)NNC(=O)c3ccccc3O)CC2)c1C	8%
Cc1ccn2c(NC(=O)c3cccc(Cl)c3)c(-c3ccccc3)nc2c1	-3%

Looked up by structure from the list above:
SMILES	VDR inh
CCOC(=O)C1=C(C)N(CCCC(=O)O)C(=O)NC1c1ccc(Cl)cc1 (configuration not stated)	-26%
CCOc1cc(/C=N/NC(=O)C(=O)NCCCOC(C)C)cc(Br)c1O	-14%
CC(C)CC(=O)NC(c1ccccc1Cl)c1c(O)ccc2ccccc12 (configuration not stated)	-2%
COCCNC(=O)C(C)N1c2cccc3cccc(c23)S1(=O)=O (configuration not stated)	-1%

Later entries
SMILES	VDR inh
C[C@H](CO)N1C[C@H](C)[C@@H](CN(C)C(=O)Nc2ccccc2)Oc2ccc(NC(=O)C3CC3)cc2C1=O	-8%
C#CCn1c(=NC(=O)c2ccc(S(=O)(=O)N3CCc4ccccc4C3)cc2)sc2cc(S(N)(=O)=O)ccc21	-24%
CCOC(=O)Cn1c(=O)oc2cc(S(=O)(=O)N3CCc4ccccc43)ccc21	6%
CCN(CC)S(=O)(=O)c1ccc(OC)c(NC(=O)CC2CCCC2)c1	0%
O=C(c1ccco1)N1CCN(CCOCCOc2cccc3ccccc23)CC1	20%
Cc1cc(C)nc(NC(=O)c2c(Cl)cccc2Cl)n1	-6%
O=C(Cn1ncn2nc(-c3cccs3)cc2c1=O)NCc1cccc(Br)c1	15%
Clc1ccccc1Oc1cnc2ccccc2n1	4%
Cc1ccn2c(Nc3ccc4c(c3)OCCO4)c(-c3ccc(Cl)s3)nc2c1	-6%
Cc1cc(C)c(S(=O)(=O)c2ccccc2)c(OC(=O)c2ccc(Cl)cc2Cl)n1	-11%
CC(C)CCN(C(=S)NC(=O)C1CCCCC1)c1c(N)n(Cc2ccccc2)c(=O)[nH]c1=O	-9%
CNC(=O)NC(=O)COC(=O)c1ccccc1OCc1ccccc1	-2%
O=C(Nc1cccnc1)c1cc(-c2cccc(Cl)c2)on1	79µM*!
COc1ccc(NC(=O)C(=O)N/N=C(\C)CC(=O)Nc2cc(C)ccn2)c(OC)c1	0%
Cc1onc(-c2c(Cl)cccc2Cl)c1NC(=O)NN(C)c1ccc([N+](=O)[O-])cn1	-18%
COc1ccccc1C(=O)NCC(=O)Nc1ccc2c(c1)OCO2	-24%
Cc1cccc(NC(=O)c2ccc3c(c2)C(=O)N(Cc2cccnc2)C3=O)c1C	-25%
Cc1ccccc1CN1CCN(CC2CC2)CC1CCO (configuration not stated)	-10%
Cc1cc(N2CCCCC2)nc(N2CCOCC2)n1	-1%
O=C1NC(NS(=O)(=O)c2ccc(Cl)cc2)(C(F)(F)F)C(=O)N1Cc1cccnc1 (configuration not stated)	-16%
CCn1c(SCC(=O)Nc2ccc(S(=O)(=O)Nc3ccccn3)cc2)nnc1-c1ccncc1	11%
Cc1onc(-c2ccccc2Cl)c1C(=O)Nc1c(C)n(C)n(-c2ccccc2)c1=O	1%
C/C(=N\O)c1oc2ccc3c(C)cc(=O)oc3c2c1C	9%
CCCn1c(CCC(=O)O)nc2cc(S(N)(=O)=O)ccc21	-4%
Cc1ccc(Cn2ncc3c(N4CCOCC4)ncnc32)cc1	6%
COc1ccc(C(=O)NCC(=O)N/N=C/C(C)=C/c2ccccc2)cc1OC	18%
Cc1ccc(S(=O)(=O)N2CCC(=O)N([C@H](COCc3ccccc3)Cc3ccccc3)CC2)cc1	-2%
COc1ccc(C2=CCCC2)c(OC)c1	-9%
CN1CCN(c2ncc3nc(-c4ccc(Cl)cc4)c(=O)n(C)c3n2)CC1	-9%
CC(C)C(=O)Nc1cc2c(cc1C(=O)c1ccccc1)OCCO2	-13%
CC(=O)Cc1nsc(NC(=O)c2ccc(Cl)cc2Cl)n1	-15%
COc1ccccc1CNC(=O)CS(=O)(=O)c1ccc(C)cc1	10%
Cn1cccc1/C=N/NC(=O)Cc1cccs1	-11%
N=c1ccn2c(n1)OCC1C2O[C@@H](O)[C@H]1O (some centres not stated)	-5%
CC(=O)Nc1nonc1-c1nnc(SCC(=O)Nc2cccc(C)c2C)n1-c1ccccc1	8%
O=C(CCN1CCN(c2ccccc2)CC1)Nc1ccc2c(c1)OCO2	10%
CCOc1ccc(NC(=O)N(C)CCc2c(C)nn(C)c2C)cc1	15%
COc1cc(C(=O)NC2CCN(C)CC2)ccc1Nc1ncc2c(n1)N(C1CCCC1)CCC(=O)N2C(C)C	4%
COc1ccc2ccccc2c1CN1CCN(C(=O)c2ccco2)CC1	1%
CCCn1c(NCc2cccs2)nc2ccccc21	22%
O=S1(=O)CCN(Cc2ccccc2Cl)CC1	-26%
Cc1ccc(C)c(OCc2nnc(NC(=O)c3ccc4c(c3)OCO4)s2)c1	-5%
CCOc1ccccc1CN1CCNC(=O)C1CC(=O)NCc1nccn1CC (configuration not stated)	-6%
CCOC(=O)N1CCN(C(=O)CNS(=O)(=O)c2cccs2)CC1	9%
Cc1c2cnn(-c3ccccc3)c(=O)c2c(C)n1C(C)C(=O)Nc1ccc(Br)cc1F (configuration not stated)	12%
CCN(CC)C(=O)c1n[nH]c(=O)c2ccccc12	-6%
Cc1ccc(C(=O)N2CCNC(=O)C2CC(=O)Nc2ccccc2)cc1 (configuration not stated)	-12%
CC(C)(C)C(=O)Nc1cc2nn(-c3ccccc3)nc2cc1Cl	1%
COc1ccc(S(=O)(=O)N2CCOCC2)cc1NC(=O)c1sccc1C	-1%
Cc1cc(-c2nsc(=O)o2)c(S(C)(=O)=O)s1	u
Cc1cc(C(=O)COC(=O)CC2Sc3ccccc3NC2=O)c(C)n1-c1cccc(C(F)(F)F)c1 (configuration not stated)	6%
Cc1ccc2cc3cc(C(=O)NC4CC4)oc3nc2c1	-21%
COc1cc([N+](=O)[O-])cc(/C=C2/SC(=S)N(Cc3ccccc3)C2=O)c1O	u
Cc1ccc(C)c(NC(=O)CN(C)C(=O)c2oc3c(Cl)cccc3c2C)c1	5%
O=C(CN(C(=O)c1nsc(Cl)c1Cl)c1ccc(F)cc1)NC1CCCC1	6%
CC1(C)Cc2c(ccc3ccccc23)C(=O)N1	-7%
CCOC(=O)C1CCCN(S(=O)(=O)c2c(C(=O)N3CCCCC3)c(C)n(C)c2C)C1 (configuration not stated)	-17%
COC(=O)[C@]1(C)N[C@H](CN(C)S(=O)(=O)c2ccc(C)cc2)[C@@H]2C(=O)N(C)C(=O)[C@@H]21	-20%
CCc1cc(C(=O)Nc2sc(C)c(CC)c2C#N)no1	79µM*
Nc1c(-c2ccccc2)cnc2cc(-c3ccccc3)nn12	-14%

New compounds follow:
SMILES	VDR inh
CC1=Nc2ccccc2N=C(NC(=O)c2ccccc2)C1c1ccccc1 (configuration not stated)	13%
C/C(=N\NC(=O)CN1CCN(S(=O)(=O)c2ccc(C)cc2)CC1)c1ccc(O)cc1	4%
CC(=O)c1ccccc1OCCOCCOCCOc1ccccc1C(C)=O	0%
CC(C)(C)NC(=S)NNC(=O)c1ccc2ncccc2c1	9%
COc1cccc(CNC(=O)Cn2cc3c(n2)CCCC3)c1	8%
CC(Sc1nc(-c2ccccc2)cc(C(F)(F)F)n1)C(=O)O (configuration not stated)	-23%
CC(=O)NC(CC(=O)N(Cc1ccccc1)c1cccc(C)c1)c1ccccc1 (configuration not stated)	-6%
COC(=O)c1sccc1NC(=O)c1csc2c1CCCC2	-6%
COc1ccc(-c2cc(=O)c3c(OC)c(OC)c(OC)c(OC)c3o2)cc1	1%&2%
CCc1nnc(NC(=O)c2ccc(COc3ccccc3)o2)s1	-5%
COc1cc(-n2c(-c3ccccc3)n[nH]c2=S)c(OC)cc1Cl	-7%
O=C(CSCc1ccccc1)Nc1ccc(F)cc1F	12%
Cc1ccc(C(=O)CN(C(=O)c2ccc(Cl)c(Cl)c2)N2C(=O)C3CCCCC3C2=O)cc1 (configuration not stated)	-3%
Nc1nonc1-n1nnc(C(=O)N/N=C/c2ccc(OCc3ccccc3)cc2)c1COc1ccc(F)cc1	3%
Cc1ccccc1CC1(CO)CCCN(C(=O)CCC(F)(F)F)C1 (configuration not stated)	-17%

Sorted by value in VDR inh (high to low): 5 from the list above
SMILES,VDR inh
CC1=Nc2ccccc2N=C(NC(=O)c2ccccc2)C1c1ccccc1 (configuration not stated),13%
CC(C)(C)NC(=S)NNC(=O)c1ccc2ncccc2c1,9%
CCc1nnc(NC(=O)c2ccc(COc3ccccc3)o2)s1,-5%
COc1cc(-n2c(-c3ccccc3)n[nH]c2=S)c(OC)cc1Cl,-7%
CC(Sc1nc(-c2ccccc2)cc(C(F)(F)F)n1)C(=O)O (configuration not stated),-23%

Additional records follow.
SMILES	VDR inh
CC(=O)c1sc(NC(=O)C2CCN(C(=O)c3ccc(F)cc3)CC2)nc1-c1ccccc1	3%
COc1ccc(N(CC(=O)NC(C)(C)C)S(=O)(=O)c2ccccc2)cc1OC	14%
COc1cccc(/C=N/NC(=S)NC2CC3CCC2C3)c1OC (configuration not stated)	-11%
CC(=O)Nc1ccc2nc3c(=O)n(C)c(=O)n(C)c3nc2c1	-7%
O=S(=O)(O)CCCS(=O)(=O)O	-2%
CCCCCOC(=O)CSc1nc2sc3c(c2c(=O)n1Cc1ccccc1)CC(C)(C)OC3	-5%
CCOc1ccccc1Oc1cn[nH]c1-c1ccc(O)cc1O	11%
COCCN1CCn2c(nc3cc(NC(=O)c4cccs4)ccc32)C1	-32%
O=C(NC1CC1)c1ccc(CSCc2cccc(F)c2)o1	u
CCC(CC)C(=O)Nc1cccc(/C(C)=N\NC(=O)c2ccc(C)s2)c1	1%
COc1ccccc1C(=O)CN1C(=O)NC2(CCCCCC2)C1=O	-2%
Cc1cc(C(=O)COC(=O)Cc2n[nH]c(=O)c3ccccc23)c(C)n1-c1cccc(C(F)(F)F)c1	3%
COc1ccc(CNCC(O)COCc2cccs2)cc1 (configuration not stated)	-15%
C=CCn1c(N)c(C(=O)NCc2ccco2)sc1=S	-11%
Cc1nn(Cc2c(Cl)cccc2Cl)c(C)c1NC(=O)Cn1nc([N+](=O)[O-])c(Cl)c1C	-2%
CCOC(=O)c1c(NC(=O)c2cc3n(n2)C(C(F)(F)F)CC(c2ccccc2)N3)sc(C)c1C (configuration not stated)	-14%
Cc1ccc2c(c1)C1(C(=O)N2C)N2CC3(C)CN1CC(C)(C2)C3=O (configuration not stated)	11%
Cc1ccc(-n2ccnc2SCC(=O)c2c(N)n(C3CC3)c(=O)[nH]c2=O)cc1C	-18%
N#CC1(NC(=O)COC(=O)c2ccc(Cl)nc2)CCCCC1	7%
O=[N+]([O-])c1cccc(-c2noc(-c3ccco3)n2)c1	-6%
CCOc1ccc(NC(=S)NCCCc2ccccc2)cc1	8%
COc1ccc(S(=O)(=O)N2CCCC2)c(C)c1C	-20%
O=CNC1c2ccccc2CCc2ccccc21	-23%
CCc1sc(-c2cc3cccc(OC)c3oc2=O)nc1-c1ccccc1	1%
Cc1cc(C)n(-c2ccc(C(=O)C(C#N)c3nc4ccccc4n3C)cc2)n1 (configuration not stated)	10%
